gsp agonist: qHTS for Agonist of gsp, the Etiologic Mutation Responsible for Fibrous Dysplasia/McCune-Albright Syndrome: qHTS | gsp mutant cells, cAMP HTRF, 30 min; control for the full effect not named in the record | Potency, µM (top dose mostly 76.9 µM), for the others: top-dose activation (cAMP increase), actives largely listed as activators | 340,000 compounds, 0.13% hits; active = well fitted activation curve with a large enough effect; inconclusive = small, poorly fitted or top-dose-only effect, or another doubt; inactive = no such curve, though single readings can be large or run the other way; cell line not stated here;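 further: phosphodiesterase inhibitor Ro 20-1724 added with compounds to block cAMP breakdown; potency means the concentration at half of the fitted maximal effect; nearly all actives have a fitted effect of over 60% in size; about a fifth of the inactives were tested at one dose only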
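Cells stably selected in G418 were plated at 2000/well, grown 16-24 hr, then given compounds in DMSO with the PDE inhibitor […] (300 uM solution added) for 30 min at 37C; cAMP was read by HTRF.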
TRPV1 PAM: HTS Assay for Compounds that Act as Potentiators of the Vanilloid Receptor 1; Transient receptor potential cation channel subfamily V member 1 (Homo sapiens), Q8NER1; TRPV1-expressing cells, Fluo-8 calcium influx, capsaicin EC20 potentiation; host cell line not named in the record; control for the full effect not named in the record; potentiation, % at 8.33 µM; 320,000 compounds, 0.02% hits; active means potentiation above 80%; inconclusive means 30% to 80%; inactive means below 30%; further: 0% is about no effect
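Fluo-8 calcium influx in TRPV1-expressing cells, kinetic read (ex 480/em 520 nm). Compound added and read 3 min for agonist activity, followed by capsaicin at EC20 final and 2 min further read for enhancement.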
gsp antagonist: qHTS for Antagonists of gsp, the Etiologic Mutation Responsible for Fibrous Dysplasia/McCune-Albright Syndrome: qHTS | Potency, µM (doses to about 76.9 µM), inactives show at the highest dose activity change, negative = inhibition, most hits filed as inhibitors | gsp-mutant cells, cAMP HTRF, 30 min; control for the full effect not named in the record | 340,000 compounds, 0.4% hits; active = falling curve of any shape with a large fitted effect; inconclusive = falling curve, mostly with a smaller effect; inactive = flat or rising curve; cell line not stated here;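 further: intracellular cAMP measured with PDE inhibitor Ro 20-1724 present during compound exposure; potency means the concentration at half of the fitted maximal effect; on the % scale 0 is the no-effect control and ±100 the full control effect; nearly all actives have a fitted effect of over 65% in size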
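Measurement of cellular cAMP by homogeneous time-resolved fluorescence following a 30 min compound exposure at 37C. The PDE inhibitor […] was present throughout; the assay buffer was DPBS with 0.05% BSA and 0.005% Tween 20.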
D2 PAM: Beta-Arrestin HTS for Positive Allosteric Modulators of the Human D2 Dopamine Receptor: Potentiators; DiscoveRx D2 beta-arrestin cells, luminescence, 90 min; 100% = 57 uM dopamine signal; potentiation, % (test concentration not listed); 360,000 compounds, 0.23% hits; AID 624464, 2012; active = potentiation of 50% or more; inconclusive = 30% to 50%; inactive = 30% or less;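 further: compound concentration not given in the record; tested on top of an EC20 dose of dopamine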
Target sequence (P14416 whole entry, looked up): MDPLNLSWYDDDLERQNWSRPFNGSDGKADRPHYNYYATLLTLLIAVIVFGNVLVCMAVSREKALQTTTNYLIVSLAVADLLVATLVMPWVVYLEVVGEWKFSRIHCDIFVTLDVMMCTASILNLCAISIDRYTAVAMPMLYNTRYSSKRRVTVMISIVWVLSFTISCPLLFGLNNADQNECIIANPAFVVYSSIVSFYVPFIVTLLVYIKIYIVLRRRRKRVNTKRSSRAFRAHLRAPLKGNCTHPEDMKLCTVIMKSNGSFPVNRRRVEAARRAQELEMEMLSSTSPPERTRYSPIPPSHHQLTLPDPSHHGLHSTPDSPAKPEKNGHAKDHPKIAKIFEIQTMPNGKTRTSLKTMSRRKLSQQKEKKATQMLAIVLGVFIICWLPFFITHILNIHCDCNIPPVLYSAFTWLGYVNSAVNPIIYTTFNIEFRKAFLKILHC
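PathHunter D2 cells, attached overnight at 37 deg C, received compound in DMSO plus dopamine at EC20 (50 nM final) for 90 min at 37 deg C. Beta-arrestin recruitment was read as luminescence after 1 h with detection reagent at ambient temperature.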
Menin-MLL FL inh: qHTS Assay for Inhibitors Targeting the Menin-MLL Interaction in MLL Related Leukemias: Competition With Fluorescein Labeled MLL-derived Peptide. FP activity change, % at 61.4 µM. 290,000 tested, under 10 active. Fluorescence polarization, fluorescein-MLL peptide displacement from menin. AID 1766, 2009; inconclusive = falling polarisation curve, or a change in total fluorescence; inactive = total fluorescence flat and polarisation flat or rising; no compound was filed as active; the % refers to the polarisation; negative = inhibition;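 further: % of control where 0% means no effect; inhibitors lower the polarisation; unlabelled MLL peptide was the positive control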
Sfp PPTase inh: qHTS Assay for Inhibitors of Bacillus subtilis Sfp phosphopantetheinyl transferase (PPTase) | Biochemical Sfp PPTase activity, qHTS | Potency, µM, without a hit: max response, negative = inhibition, most hits filed as inhibitors | 310,000 compounds, 3.5% hits | AID 1490, 2009; active means well fitted inhibition curve with a large enough effect; inconclusive means small, poorly fitted or top-dose-only effect, or another doubt; inactive means no such curve, though single readings can be large or run the other way;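 further: the enzyme is Sfp with the accession as filed and its product quenches rhodamine fluorescence; potency means the concentration at half of the fitted maximal effect; 0% = enzyme reaction without inhibitor and -100% = no enzyme wells; top concentration of the series not given in the record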
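Reaction rates are the 30-min fluorescence difference (ex 525, em 598 nm) in wells containing 15 nM Sfp, 5 uM rhodamine-CoA and 12.5 uM BHQ-2-YbbR at pH 7.6 with 10 mM MgCl2.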
ClpP mod: qHTS Assay for Activators of ClpP; ATP-dependent Clp protease proteolytic subunit (Bacillus subtilis (strain 168)), P80244; purified B. subtilis ClpP, FRET peptide cleavage, 20 min; Potency, µM (highest dose often 57.5 µM), for the others: at the highest dose activity change, negative = active; 340,000 compounds, 1.9% hits; AID 651965, 2013; active = well fitted falling curve with a large enough effect; inconclusive = small, poorly fitted or top-dose-only effect; inactive = no such curve, though single readings can be large or run the other way; further: potency means the concentration at half of the fitted maximal effect; the source files actives as falling curves though it sought activators and does not explain the sign; nearly all actives have a fitted effect of over 65% in size; many hits overshoot -100%
Target sequence (P80244 whole entry, looked up): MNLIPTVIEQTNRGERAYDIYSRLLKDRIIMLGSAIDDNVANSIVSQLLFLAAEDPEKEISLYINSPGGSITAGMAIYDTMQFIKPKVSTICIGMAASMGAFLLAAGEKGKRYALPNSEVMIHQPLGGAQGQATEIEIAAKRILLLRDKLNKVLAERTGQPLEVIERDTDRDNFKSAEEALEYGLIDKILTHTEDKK
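Buffer: 100 mM Tris/HCl pH8, 100 mM KCl, 0.05% low protease BSA, 2.5% glycerol, 0.01% Tween-20. ClpP 10 microg/mL final; 20 min RT; delta FRET normalized to ADEP and DMSO controls.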
Starred values were filed as active, the others as inactive; u = inconclusive; x = no result given; & = joins results of further samples; [ ] = remark or other dose.

Compound,TRPV1 PAM,gsp antagonist,Menin-MLL FL inh,ClpP mod,Sfp PPTase inh,gsp agonist,D2 PAM
COc1ccc(N2CCN(C(C)C(=O)N(C)Cc3ccccc3)CC2)cc1 (stereo unspecified),27.0,-0.8%,-3.9,x,8.4%,-8.5%,-16.7
COc1ccc(C2CN=NC23CCc2ccccc2C3=O)cc1 (stereo unspecified),-3.3,5.9%,-2.7,-1.6%,-1.3%,3.7%,-10.9
COc1ccccc1C(=O)NC1CCN(C(=O)Nc2ccc(F)cc2)CC1,16.6,x,-11.3,x,11.8%,3.0%[15.4 µM],-29.8
Brc1ccccc1Cn1cnc2ccccc21,-14.2,-1.2%,-5.4,0.3%,17.9%,3.8%,-21.5
CCOC(=O)C(=Cc1ccccc1OC)C(=O)OCC,-9.2,-6.3%,10.5,x,-8.7%,1.0%,0.0
CCOC(=O)CN1C(=O)SC(Nc2ccc(C)cc2)C1=O (stereo unspecified),-16.6,x,1.4,x,-2.1%,7.8%[15.4 µM],-3.5
COc1ccc(C2=NN(C(=S)Nc3ccccc3)C(c3ccccc3)C2)cc1 (stereo unspecified),-7.9,10.6%,5.9,-19.4%,-1.2%,2.8%,5.7
Cc1cccc(NC(=O)N2CCCC2C(=O)NCc2ccccc2)c1 (stereo unspecified),9.0,11.2%,2.5,0.6%,9.3%,-26.2%,-1.7
Cc1sc2nc(C3CC3)nc(SCC(=O)N3CCc4ccccc4C3)c2c1C,25.0,-16.2%,-0.6,-17.3%,-15.2%,14.9%,-23.6
COc1ccc(/C(N)=N/OC(=O)COc2ccccc2Cl)cc1,12.1,5.4%,4.7,-0.5%,u,-28.7%,7.3
O=C(Nc1nnc(SCc2ccccn2)s1)C1CC(=O)N(c2ccc(F)cc2)C1 (stereo unspecified),2.8,-22.5%,x,-2.7%,3.9%,-2.7%[15.4 µM],-13.3
O=C(CCSc1nnc(-c2ccc(O)cc2)o1)N1CCOCC1,4.5,2.6%,1.3,x,26.0%,1.1%,0.1

Next section:
Compound,TRPV1 PAM,gsp antagonist,Menin-MLL FL inh,ClpP mod,Sfp PPTase inh,gsp agonist,D2 PAM
COc1ccc(NC(=O)Cc2ccsc2)cc1S(=O)(=O)N1CCCCC1,12.7,-17.6%,x,-1.8%,x,-18.0%,23.1
CSc1ccc(CCNC(=O)CS(=O)(=O)Cc2nc(-c3ccccc3F)oc2C)cc1,-7.6,-2.0%,0.3,x,17.7%,2.7%,-18.4
O=S(=O)(Nc1cccc(-c2ccc3nncn3n2)c1)c1cccs1,5.2,1.0%,-0.7,x,0.3%,1.0%[15.4 µM],-2.0
CCSc1ncc(Cl)c(C(=O)Nc2ccccc2F)n1,-33.3,-12.0%,-1.1,0.1%,26.4%,11.2%[15.4 µM],-2.4
CCCCc1nc2cc(C(=O)N3CCCCC3CCO)ccc2o1 (stereo unspecified),-0.8,4.4%,x,-4.0%,5.0%,13.8%[15.4 µM],-9.6
CN(Cc1c(F)cccc1Cl)c1ccc(S(=O)(=O)N2CCOCC2)cn1,-3.6,-17.3%,-0.7,-25.1%,14.8%,0.1%,-8.6
COc1cc(NC(=O)CCN2CCOCC2)cc(OC)c1,-3.4,7.4%,-13.4,-2.0%,15.1%,-7.3%[15.4 µM],-5.5
CCN1C(=NCCOC)N[C@@H](c2cccs2)C(C(=O)OC)=C1C,5.1,5.9%,1.2,-0.9%,2.4%,x,-1.5
Cc1onc(-c2ccccc2Cl)c1C(=O)Nc1nc2c(s1)CCCC2,11.4,-17.7%,3.5,-12.8%,-12.4%,-48.7%[inhibitor],-24.2
O=C(Nc1ccccc1)c1ccc(NC(=O)C2CC2)cc1,16.5,9.3%,-0.4,-4.4%,19.9%,-42.2%[inhibitor],-2.0
CC(=O)Nc1cccc2ccc(O)cc12,x,u,x,x,x,7.9%,6.9
CC(=O)NC(CC(=O)NNC(=O)C(C)Oc1ccccc1F)c1ccccc1 (stereo unspecified),6.7,19.0%,x,-2.2%,x,-10.5%,-14.8

Going on with the list:
Compound,TRPV1 PAM,gsp antagonist,Menin-MLL FL inh,ClpP mod,Sfp PPTase inh,gsp agonist,D2 PAM
Cc1cccc(C)c1NC(=O)COC(=O)c1ccc([N+](=O)[O-])o1,-5.9,-2.2%,3.4,2.8%,9.0%,-9.3%[15.4 µM],17.6
O=C(NNC(=O)c1ccncc1)Nc1ccccc1,18.8,8.2%,2.8,x,17.3%,-16.3%,-1.3
CCN(C[C@H]1N[C@@](CC)(C(=O)OC)[C@H]2C(=O)N(Cc3ccccc3)C(=O)[C@@H]12)C(=O)c1ccc(C)cc1,x,-19.6%,x,-0.5%,x,x,u
O=S(=O)(c1ccc(F)cc1)N1CCN(C(=S)NCc2ccccc2)CC1,1.6,-2.0%,-2.1,x,9.9%,-3.9%,-3.0
Cc1ccc(S(=O)(=O)N2CCN(C(=O)c3cc(S(=O)(=O)N4CCOCC4)c(Cl)cc3Cl)CC2)cc1,x,-13.6%,x,1.1%,x,u,9.7
Cc1cc(N2CCCC2=O)ccc1S(=O)(=O)Nc1c(C)nn(C)c1C,-2.9,1.4%,-2.3,x,9.5%,0.4%[15.4 µM],-2.6
COc1ccc(C2/C=C\CN(C(=O)C3CC3)[C@H](Cc3ccccc3)C(=O)N2Cc2ccc(F)cc2)cc1 (stereo partly specified),3.8,-22.2%,4.9,-3.5%,-2.3%,x,-8.3
O=C(CCn1c(=O)[nH]c2ccccc2c1=O)N1CCN(c2cccc(C(F)(F)F)c2)CC1,-2.3,-17.6%,1.6,-1.0%,-9.1%,11.4%,10.8
C/C(CC(=O)Nc1cccc(Cl)c1Cl)=N\NC(=O)C(=O)NC1CCCCC1,5.4,-1.4%,0.7,-1.3%,12.7%,-4.2%[15.4 µM],-0.5
CN(C)S(=O)(=O)c1ccc(NC(=O)CN2CCOCC2)cc1,-17.1,11.1%,-0.4,0.1%,30.3%[activator],-19.5%,-11.2
COc1cc(N)c(C(O)c2nccc3cc(OC)c(OC)cc23)cc1OC (stereo unspecified),7.6,4.1%,-0.2,x,-2.7%,-9.1%,-2.2
CC1(C)COC(c2ccc3c(c2)OCO3)OC1,x,2.7%,x,x,x,-3.3%,0.2

Remaining list, next part
Compound,TRPV1 PAM,gsp antagonist,Menin-MLL FL inh,ClpP mod,Sfp PPTase inh,gsp agonist,D2 PAM
CC(=O)Nc1cc(NC(C)=O)cc(C(=O)OC(C)C(=O)Nc2ccc(S(=O)(=O)N3CCCC3)cc2)c1 (stereo unspecified),0.7,-0.3%,x,x,x,40.9%[15.4 µM],-14.5
Cc1ccc(OCCCn2ccnc2)c([N+](=O)[O-])c1,2.4,14.9%,5.1,1.3%,-12.9%,-4.0%[15.4 µM],-8.8
Cc1cccc(NC(=O)c2sc(NC(=O)c3ccco3)c(C#N)c2C)c1C,6.3,9.8%,10.5,-7.4%,3.2%,-0.4%,-13.6
Cc1ccc(S(=O)(=O)N2CCC(C(=O)Nc3nnc(C45CC6CC(CC(C6)C4)C5)s3)CC2)cc1,2.7,x,5.5,x,4.0%,x,x
CC1(C)OC(=O)N(c2ccccn2)C1(C)O (stereo unspecified),2.7,0.8%,2.2,-1.0%,18.7%,u,5.9
O=C1CSC(=Nc2ccc(O)cc2)N1c1ccc(O)cc1,2.7,-7.1%,-0.7,0.7%,8.9%,-25.1%,5.5
Cc1ccc(-n2ncc3c(NNC(=O)c4ccco4)ncnc32)c(C)c1,1.2,1.5%,2.3,u,17.6%,4.9%[15.4 µM],-6.4
CC(=O)c1nc(N2C(=O)CC(Cc3cccc(C)c3)C2=O)sc1C (stereo unspecified),0.0,8.4%,8.7,2.1%,18.3%,u,-7.9
Cc1[nH]c2ccccc2c1C(=O)CSC(=S)N(C)C,7.4,-8.3%,3.6,-1.2%,0.6%,-0.3%,-18.0
Nc1ccc(-c2nc3ccc(-c4nc5ccc(N)cc5[nH]4)cc3[nH]2)cc1,x,x,12.9&3.5&-1.0,4.4%,u,x,x
COn1c(SCC(N)=O)nc2ccccc2c1=O,11.9,9.8%,1.2,-1.5%,6.4%,3.0%,-9.3
Cc1nn2c(=O)cc(COC(=O)c3ccc(S(=O)(=O)N4CCCCC4)cc3)nc2s1,0.6,5.4%,-0.1,-1.5%,4.0%,-16.4%,13.1

The results go on:
Compound,TRPV1 PAM,gsp antagonist,Menin-MLL FL inh,ClpP mod,Sfp PPTase inh,gsp agonist,D2 PAM
C=CCNC(=S)Nc1cc(C)ccn1,-1.0,x,0.4,x,-19.2%,-9.9%[15.4 µM],1.6
CCCN(c1ccc(C)cc1)c1nc(=O)c2cccnc2s1,-10.7,-42.4%,3.0,-17.3%,25.0%,6.3%[15.4 µM],-26.0
Cc1ccc(N2CCN(CC(=O)Nc3c(C(=O)C4CC4)oc4ccccc34)CC2)cc1,-5.7,x,-3.0,x,-18.1%,x,x
COc1ccc(CNC(=O)COC(=O)c2cc(-c3cccs3)nc3ccccc23)cc1OC,-19.0,-14.9%,-2.0,u,-10.2%,-13.1%,-13.8
CC(C)C(NS(=O)(=O)c1ccccc1F)C(=O)N1CCc2ccccc2C1 (stereo unspecified),-23.6,-6.4%,-2.7,x,9.8%,36.6%,-5.5
CC(=O)NC(NC(=S)Nc1ccc(S(N)(=O)=O)cc1)C(Cl)(Cl)Cl (stereo unspecified),-1.9,4.6%,2.4,-0.3%,14.9%,6.4%,-7.9
O=S(=O)(CCc1ccccc1)N1CCOCC1,-2.7,10.4%,4.4,-1.8%,10.0%,29.8%,-2.0
COc1ccc(NC(=S)NC(=O)/C=C/c2ccc(F)cc2)cc1,-5.0,10.0%,3.0,0.3%,12.9%,-33.3%[inhibitor],1.0
COc1ccc(CCNC(=O)COC(=O)C2CC2)cc1,-0.4,11.2%,2.1,x,18.5%,-2.8%,0.6

Screens from PubChem BioAssay.
